Assay outcomes (PubChem)
ugtP null kill = kills S. aureus RN4220 lacking UgtP. S. aureus RN4220 ugtP deletion, OD600 growth, 16 h; some inactives read as strong as hits. growth inhibition, % (no concentration beside the values). 0.54% of 330,000 active;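 active = z-score under -3 and OD600 up to 0.15 on both plates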;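 also: plate controls were untreated wells for no effect and antibiotic for full effect; wells of about 80 µL received 100 nL stock; the first replicate is given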
PrP 5UTR inh = inhibition of PrP 5' UTR reporter expression | cell-based PrP 5' UTR mRNA reporter, plate reader | 0.35% of 340,000 active | inhibition, % (test concentration not listed);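 active = every replicate at 50% or more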;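 also: 0 = median of the neutral control wells; tested in H4 reporter cells; numbers are from one replicate; inactives centre near -14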
BJeLR viability = kills HRASV12-expressing BJeLR cells | inhibition, % (concentration not given with the values) | BJeLR (HRASV12) viability, CellTiter-Glo ATP luminescence, 48 h; reference of the scale not given here | 0.17% of 300,000 active | AID 1554;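 active = replicate mean above 50%; inconclusive = above 50% but judged a plate artefact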;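 also: 50 nL library stock added to about 25 µL; numbers are from one replicate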
Mtb hypoxia inh = inhibitors of hypoxia-regulated fluorescent reporter in Mycobacterium tuberculosis | M. tuberculosis hypoxia-regulated fluorescent reporter, fluorescence | 0.1% of 300,000 active | AID 1159583 | fluorescence inhibition, % (test concentration not listed);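 active = 35 to 45% if threefold the growth effect, above 45% if 1.5-fold the growth effect; inactive = the rest, general growth blockers included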;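 also: wells of about 50 µL received 100 nL stock; 0% = vehicle wells and 100% = reference inhibitor wells; whole bacteria with a GFP reporter of the hypoxia response; strong numbers were not always called active; many hits fall short of the cut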
RN4220 kill = kills Staphylococcus aureus RN4220; S. aureus RN4220 growth, OD600, 16 h; inhibition, % (test concentration not listed); 0.33% of 330,000 active; AID 1259311;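 active = z-score of -3 or lower and OD600 up to 0.18 on both plates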;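 also: plate controls were untreated cells for no effect and reference antibiotic for full effect; stock transfer was 100 nL into about 80 µL; one replicate is shown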
Bead autofluor = counter-screen for toxin protease inhibitors: compound fluorescence. compound autofluorescence counterscreen, microsphere flow cytometry; active compounds read high. fluorescence intensity (no concentration beside the values). 3.1% of 360,000 active;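 active = at least 3 SD above the mean of all compounds, about 16000 in these data; inconclusive = too few beads counted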;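 also: 100 nL of 1 mM stock went into each well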
Mtb hypoxia inh growth = recorded beside Mtb hypoxia inh, whose call it bears; growth inhibition, %; measured here: M. tuberculosis growth (absorbance);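 0% = vehicle and 100% = reference antibiotic; read after six days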
Numbers without * were called inactive; ? = inconclusive; · = no result given.

1) COc1ccc([N+](=O)[O-])cc1NS(=O)(=O)c1cc(C(=O)O)ccc1OC
2) CCN(CCCC(=O)c1ccc(F)cc1)CCc1ccccc1
3) O=C1CC(c2ccccc2)c2c(O)cc(O)cc2O1 (stereo not drawn)
4) COc1ccc(C2N(C(=O)CN3CCCC3)CCCN2S(=O)(=O)c2ccccc2)cc1 (stereo not drawn)
5) CCc1nnc(NC(=O)CCC(=O)NCc2ccccc2Cl)s1
6) CCOC(=O)Nc1nc2ccccc2s1
7) CC(=O)Nc1ccc(SCCN2CCC(O)CCC2=O)cc1 (stereo not drawn)
8) Cc1c(NC(=O)CSc2nnc(-c3cccc(Cl)c3)o2)c(=O)n(-c2ccccc2)n1C
Screen / compound no.,1,2,3,4,5,6,7,8
ugtP null kill,7,3,12,-6,6,7,0,-3
BJeLR viability,-4,-3,4,1,-1,1,·,2
Bead autofluor,3463,3336,4336,6239,5859,3236,·,2106
RN4220 kill,3.1,-0.5,-2.5,2.0,0.1,9.6,6.7,-0.9
PrP 5UTR inh,0,-20,-1,-13,-27,-31,·,-2
Mtb hypoxia inh,10,7,·,10,2,2,12,·
Mtb hypoxia inh growth,3,25,·,2,4,4,6,·

9) O=C(CON=Cc1ccccc1OC(F)F)NCc1ccco1
10) Cc1cc(C(=O)N/N=C(\CCC(=O)O)c2cccs2)c2ccccc2n1
11) COc1cc(Cl)c(C)cc1NC(=O)COC(=O)c1cc(SC)ccc1Cl
12) Cc1ncc([N+](=O)[O-])n1CCN1C(=O)c2ccccc2C1=O
13) Cc1cc(=O)n2[nH]c(-c3ccc(Cl)cc3)cc2n1
14) COc1ccc(NC(=S)Nc2cccnc2)c(OC)c1
15) Cc1nonc1OCCNc1ccc([N+](=O)[O-])cc1
16) CCOC(=O)C1=C(CS(=O)(=O)c2ccc(C)cc2)NC(=O)NC1c1cc(OC)c(O)c(OC)c1 (stereo not drawn)
Screen / compound no.,9,10,11,12,13,14,15,16
ugtP null kill,3,·,-6,6,-2,-6,-3,2
BJeLR viability,·,-5,3,9,7,-5,2,8
Bead autofluor,·,4216,2442,3688,2100,3847,1978,5820
RN4220 kill,0.0,·,5.4,3.8,11,2.0,7.4,2.2
PrP 5UTR inh,·,-43,-14,-31,-33,-35,-31,-2
Mtb hypoxia inh,5,·,8,12,·,4,7,7
Mtb hypoxia inh growth,3,·,8,5,·,8,6,3

17) CC(=O)N1CCN(c2ccc(NCc3ccc(-c4ccc(Br)cc4)o3)cc2)CC1
18) O=C(Nc1ncc([N+](=O)[O-])s1)C1CC(=O)N(c2ccc(F)cc2)C1 (stereo not drawn)
19) Cc1cc(C)c2[nH]c(=O)c(C(c3nnnn3C(C)(C)C)N(Cc3ccco3)CC3CCCO3)cc2c1 (stereo not drawn)
20) CC(NC(=O)c1cccnc1)C(c1cccs1)N1CCOCC1 (stereo not drawn)
21) COc1ccc2oc(C(=O)OC(C)C(=O)NCc3ccccc3)c(C)c2c1 (stereo not drawn)
22) CN(Cc1nc2ccc(F)cc2[nH]1)C(=O)C1CCC(=O)N(C2CC2)C1 (stereo not drawn)
23) CC(C)c1ccc(NC(=O)C2CCCCN2S(=O)(=O)c2ccccc2)cc1 (stereo not drawn)
24) COC1CCN(Cc2cn(Cc3ccccc3)nc2-c2cc3ccccc3o2)CC1
Screen / compound no.,17,18,19,20,21,22,23,24
ugtP null kill,-12,18,-6,1,14,8,31,-7
BJeLR viability,·,11,10,-2,3,1,·,0
Bead autofluor,4064,5791,20853*,6675,4444,5226,4145,4540
RN4220 kill,7.1,23,1.5,-0.2,5.6,0.9,-1.0,-2.4
PrP 5UTR inh,-15,-23,-27,2,-7,-2,-29,-11
Mtb hypoxia inh,-10,15,3,6,21,-1,7,1
Mtb hypoxia inh growth,4,16,3,7,16,2,4,3

25) Cc1nn(CC(=O)Nc2c(F)cc(F)cc2Br)c(=O)c2cccn12
26) Cc1c(CCOC(=O)c2cc([N+](=O)[O-])cc([N+](=O)[O-])c2)sc[n+]1CC(=O)c1ccccc1
27) Cn1ncc(Cl)c1C(=O)NCc1ccc(Cl)cc1
28) CCCn1c(-c2ccccc2)cc(SC)c(C#N)c1=O
29) O=C(OCC(=O)N1CCCC1=O)c1cc(S(=O)(=O)N2CCOCC2)ccc1F
30) N#CCSc1nnc(COc2ccc3ccccc3c2)o1
31) O=C(COC(=O)C1CCC1)Nc1cc(S(=O)(=O)N2CCCCC2)ccc1Cl
32) COc1ccc(C(=O)N2CCCC(CNC(=O)c3ccc(F)cc3)C2)cc1OC (stereo not drawn)
Screen / compound no.,25,26,27,28,29,30,31,32
ugtP null kill,0,-9,6,19,7,2,5,·
BJeLR viability,-2,-1,16,7,-5,-7,-2,4
Bead autofluor,6358,4189,2053,4908,·,7130,?,5828
RN4220 kill,2.5,3.5,0.8,6.8,4.9,3.3,4.2,·
PrP 5UTR inh,-6,-22,-7,-23,0,-17,-23,-21
Mtb hypoxia inh,2,4,12,9,6,-68,0,·
Mtb hypoxia inh growth,2,4,2,2,7,2,1,·

Down the list, quoted from above:
PrP 5UTR inh for nos. 19 to 29 → -27, 2, -7, -2, -29, -11, -6, -22, -7, -23, 0
RN4220 kill for nos. 19 to 29 → 1.5, -0.2, 5.6, 0.9, -1.0, -2.4, 2.5, 3.5, 0.8, 6.8, 4.9

Other entries follow.
33) C[n+]1cccc2c(Br)ccc([O-])c21
34) C/C(=N\S(=O)(=O)c1ccc(C)cc1)N1CCN(S(=O)(=O)c2ccccc2)C1
35) CNC(=O)CN1C(=O)CSc2nc(C)cc(C)c21
36) CSc1nc(-c2ccc(C)cc2)nc(N)c1C#N
37) CCc1ccc(-n2c(SCc3c(C)noc3C)nnc2-c2ccncc2)cc1
38) NNC(=O)c1csc(-c2ccc(C(F)(F)F)cc2Cl)n1
39) COc1cccc(-c2nc(CS(=O)(=O)CC(=O)NC3CCCCC3C)c(C)o2)c1 (stereo not drawn)
40) CC(C)C(=O)Nc1nc2ccc(S(C)(=O)=O)cc2s1
Screen / compound no.,33,34,35,36,37,38,39,40
ugtP null kill,3,·,2,-12,6,-5,-7,-3
BJeLR viability,5,-3,-4,-9,5,4,4,0
Bead autofluor,3959,?,5646,5946,2392,3428,4427,2083
RN4220 kill,3.1,·,0.3,1.8,3.5,-1.2,1.2,4.4
PrP 5UTR inh,-7,-2,-36,-7,-39,-26,0,-6
Mtb hypoxia inh,17,·,·,-1,·,5,4,3
Mtb hypoxia inh growth,14,·,·,0,·,4,-5,3

41) O=S(=O)(Nc1ccc(-n2cnnn2)cc1)c1cccc(F)c1
42) CCc1cccc(OCCCCNCCO)c1
43) CCCc1cc(=O)[nH]c(SCC(=O)Nc2ccc(Br)cc2)n1
44) COc1ccc(CNc2nc3nc(C)c(Cl)c(=O)n3[nH]2)cc1
45) O=C(CSc1nnc2scc(-c3ccc(Cl)cc3)n12)NCc1ccc2c(c1)OCO2
46) O=c1[nH]ncc(N/N=C\c2ccncc2)c1Cl
47) O=C(NCc1ccccc1Cl)C1CC(=O)N(Cc2ccccc2)C1 (stereo not drawn)
48) CCNc1nc(NC(C)(C)C)nc(SC)n1
Screen / compound no.,41,42,43,44,45,46,47,48
ugtP null kill,0,1,-4,10,-9,·,4,-6
BJeLR viability,·,-5,-17,7,-12,-10,2,-4
Bead autofluor,5573,·,3912,4249,24173*,2513,3124,6093
RN4220 kill,-1.5,2.5,11,3.4,7.1,·,12,4.1
PrP 5UTR inh,-27,-19,-12,-12,-6,-6,-5,-13
Mtb hypoxia inh,6,19,10,23*,10,·,-12,-2
Mtb hypoxia inh growth,3,6,14,55*,8,·,1,-16

49) CCn1nc(C)cc1C(=O)N1CCCC(Nc2ccc(C(C)C)cc2)C1 (stereo not drawn)
50) CC1(C)Cc2c(cnn2-c2ccc(F)cc2)C(NC(=O)C2=NNC(=O)CC2)C1 (stereo not drawn)
51) COC(=O)c1ccc(Oc2nc(NC(C)C)nc(SC)n2)cc1
52) c1ccc(CCC2CCCCN2Cc2cn[nH]c2-c2cc3ccccc3o2)nc1 (stereo not drawn)
53) NC(=O)[C@H]1CC2(CC(c3cccc(NC(=O)CC(c4ccccc4)c4ccccc4)c3)=NO2)CN1C(=O)c1ccccc1C(=O)c1ccccc1 (stereo partly drawn)
54) Cc1[nH]c2ccc(C(=O)N3CCN(C)CC3)cc2c1C
55) CN(CCO)c1cc(N(C)CCO)c([N+](=O)[O-])cc1[N+](=O)[O-]
56) CCC1(c2ccccc2)NC(=O)N(CC(=O)Nc2cccc(S(=O)(=O)N3CCCCC3)c2)C1=O (stereo not drawn)
Screen / compound no.,49,50,51,52,53,54,55,56
ugtP null kill,3,3,-1,-2,·,0,3,-23
BJeLR viability,-6,8,8,3,4,2,-9,·
Bead autofluor,5661,5756,2467,4117,3513,5875,3417,6220
RN4220 kill,3.1,2.5,1.3,1.8,·,4.1,1.3,-2.9
PrP 5UTR inh,-8,-30,-13,-22,-14,-22,-2,3
Mtb hypoxia inh,8,-2,·,11,·,9,4,-1
Mtb hypoxia inh growth,-4,-7,·,-2,·,2,-4,6

Compounds above with two or more sulfur atoms (three):
34) C/C(=N\S(=O)(=O)c1ccc(C)cc1)N1CCN(S(=O)(=O)c2ccccc2)C1
40) CC(C)C(=O)Nc1nc2ccc(S(C)(=O)=O)cc2s1
45) O=C(CSc1nnc2scc(-c3ccc(Cl)cc3)n12)NCc1ccc2c(c1)OCO2
Screen / compound no.,34,40,45
ugtP null kill,·,-3,-9
BJeLR viability,-3,0,-12
Bead autofluor,?,2083,24173*
RN4220 kill,·,4.4,7.1
PrP 5UTR inh,-2,-6,-6
Mtb hypoxia inh,·,3,10
Mtb hypoxia inh growth,·,3,8

The list goes on.
57) Cc1ccc(S(=O)(=O)NCC2CCCO2)cc1 (stereo not drawn)
58) CC(=O)Nc1cccc(OCC(=O)NS(=O)(=O)c2ccc(Cl)cc2)c1
59) COc1ccc(C(=O)CN2CCN(c3ccc(Cl)cc3)CC2)cc1OC
60) N#Cc1ccc(C(=O)NNC(=O)c2cccc(S(=O)(=O)N3CCOCC3)c2)cc1
61) O=C(Cn1c(/C=C/c2ccccc2)nc2ccccc21)Nc1ccc(F)cc1
62) Cc1ccc(S(=O)(=O)NCc2ccco2)cc1C(N)=O
63) Cc1ccc(NC2(C#N)C(=O)Nc3ccccc32)cc1 (stereo not drawn)
64) CS(=O)(=O)Nc1ccc(C(=O)Nc2cccc([N+](=O)[O-])c2)cc1
65) COc1ccc(-c2cc(C(F)(F)F)n3ncc(C(=O)N4CCCCC4c4cccnc4)c3n2)cc1 (stereo not drawn)
Screen / compound no.,57,58,59,60,61,62,63,64,65
ugtP null kill,3,-1,6,-2,-15,-7,·,0,1
BJeLR viability,1,·,-7,·,6,1,-14,-7,-8
Bead autofluor,4444,2711,3958,4280,9421,3932,2605,2143,3116
RN4220 kill,0.7,1.8,4.5,2.2,7.6,0.8,·,-2.9,11
PrP 5UTR inh,-8,-9,-42,·,-67,-16,-9,-3,-22
Mtb hypoxia inh,-11,·,1,-4,16,-5,·,-3,-3
Mtb hypoxia inh growth,5,·,0,0,4,-6,·,-4,3
